High-throughput results (PubChem BioAssay)
Ecoli growth: blocks Escherichia coli growth; AID 1053175; actives 0.21% (n = 330,000); OD600, 23 h; hits give low values; OD600 absorbance (concentration not given with the values);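 active = OD600 absorbance below the run mean of sample wells minus 3.6 SD, in any replicate, cut at about 0.56 in these data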;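 also: stock transfer was 300 nL into about 60 µL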
Vif TR-FRET: inhibitors of Vif binding to APOBEC3G peptide, primary screen, biochemical, TR-FRET, GST-Vif 1-94, biotin-A3G peptide, dose response retest (AID 1117319); inhibition, %, or IC50 in µM where a hit was titrated; actives 0.57% (n = 260,000); TR-FRET GST-Vif / biotin-A3G peptide binding; higher % means a stronger effect; test concentration not given here; strong numbers were not always called active;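 active = above the screen mean plus three standard deviations and confirmed in dose response; inconclusive = results disagree or hit not tested in dose response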;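 also: Vif residues 1-94 fused to GST binding biotinylated APOBEC3G peptide 110-148; 0% = full assay without inhibitor and 100% = GST in place of GST-Vif; retest series ran down from 100 µM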
AF4-AF9 inh: inhibitors of human MLL-AF4/AF9 interaction; AlphaScreen, biotin-AF4 peptide binding to FLAG-AF9; inhibition, % at 10 µM; P42568; actives 0.47% (n = 350,000); AID 651704;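 active = every replicate reaching a set inhibition limit, whatever the replicate mean, cut at about 25% in these data; inconclusive = mean inhibition reaches that limit but some replicates miss it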;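 also: 0% = plate neutral control median and 100% = total signal loss; the record names both 10 and 1 µM as test concentration; the first replicate is given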
Target sequence (P42568 whole entry, looked up): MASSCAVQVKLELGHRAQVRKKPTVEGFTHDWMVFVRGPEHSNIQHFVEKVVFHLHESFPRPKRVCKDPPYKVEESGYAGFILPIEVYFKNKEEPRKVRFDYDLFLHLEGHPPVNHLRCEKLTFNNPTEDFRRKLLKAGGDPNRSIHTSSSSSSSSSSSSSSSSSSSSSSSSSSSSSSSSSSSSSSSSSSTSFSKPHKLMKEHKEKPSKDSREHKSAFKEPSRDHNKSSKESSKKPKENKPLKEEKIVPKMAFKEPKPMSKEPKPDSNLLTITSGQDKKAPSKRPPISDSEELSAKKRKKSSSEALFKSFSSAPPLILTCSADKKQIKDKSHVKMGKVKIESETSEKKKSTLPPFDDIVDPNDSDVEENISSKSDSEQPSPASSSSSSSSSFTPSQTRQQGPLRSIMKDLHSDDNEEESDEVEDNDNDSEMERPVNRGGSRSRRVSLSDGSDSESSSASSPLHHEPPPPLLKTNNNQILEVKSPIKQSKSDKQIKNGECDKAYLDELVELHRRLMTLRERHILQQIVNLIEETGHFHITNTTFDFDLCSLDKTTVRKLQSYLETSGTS
FGF22 binding: shifts melting point of recombinant human FGF22. recombinant FGF22 thermal shift, SYPRO orange fluorescence; percent of sucrose octasulfate shift, DMSO zero. AID 651658. actives 1.5% (n = 340,000). calls only at 9.99 µM;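 active = melting point raised past a set limit in the mean and every replicate; inconclusive = no clear call; three in four hits are not shown here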
RanGTP-Impb inh: inhibitors of RanGTP-importin-beta interaction, primary screen, biochemical, FRET, CFP-Ran, YFP-importin-beta, homogeneous | cell-free CFP-Ran/YFP-importin-beta FRET ratio | inhibition, % (test concentration not listed) | actives 1.1% (n = 300,000) | AID 2216;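 active = most replicates above 15%; inconclusive = exactly half above 15%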;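 also: 0% = DMSO wells and 100% = Ran loaded with GDP instead of GTP; wells of about 40 µL received 100 nL stock; the first replicate is given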
UCH37 inh: human UCH37 deubiquitinating enzyme inhibition; purified proteasome/UCH37, Ub-AMC cleavage fluorescence; actives 0.33% (n = 330,000); AID 588478; Q9Y5K5; inhibition, % (no concentration beside the values);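 active = mean of two replicates above 20%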;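 also: 0% = compound-free wells with enzyme and 100% = wells lacking proteasome; stock transfer was 100 nL into about 20 µL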
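System: Proteasome-associated human UCH37 deubiquitinase; Input: 0.15 nM proteasome in added enzyme buffer; Also added: Ub-AMC substrate from 1 µM stock; Incubation: 30 min compound-proteasome preincubation then 25 min substrate reaction, room temperature; Detection: fluorescence, ex 355 nm, em 460 nm; Read-out: % inhibition of Ub-AMC cleavage fluorescence; Benchmarks: no-proteasome and no-compound wells.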
HNF4A DNA FP: change in binding of human HNF4 alpha to DNA; actives 0.3% (n = 360,000); activity change, % at 10 µM; P41235; AID 1224865; HNF4a-FITC DNA binding, fluorescence polarization, 1 h; in the data active = activity change above about 30%, passing the limit was not always enough;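 also: controls were the assay level and a saturating level of protein; the project sought stronger binding though the title names inhibitors; some compounds called inactive have numbers as strong as hits; positive values seem to mean higher polarization but the record does not say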
Target sequence (P41235 whole entry, looked up): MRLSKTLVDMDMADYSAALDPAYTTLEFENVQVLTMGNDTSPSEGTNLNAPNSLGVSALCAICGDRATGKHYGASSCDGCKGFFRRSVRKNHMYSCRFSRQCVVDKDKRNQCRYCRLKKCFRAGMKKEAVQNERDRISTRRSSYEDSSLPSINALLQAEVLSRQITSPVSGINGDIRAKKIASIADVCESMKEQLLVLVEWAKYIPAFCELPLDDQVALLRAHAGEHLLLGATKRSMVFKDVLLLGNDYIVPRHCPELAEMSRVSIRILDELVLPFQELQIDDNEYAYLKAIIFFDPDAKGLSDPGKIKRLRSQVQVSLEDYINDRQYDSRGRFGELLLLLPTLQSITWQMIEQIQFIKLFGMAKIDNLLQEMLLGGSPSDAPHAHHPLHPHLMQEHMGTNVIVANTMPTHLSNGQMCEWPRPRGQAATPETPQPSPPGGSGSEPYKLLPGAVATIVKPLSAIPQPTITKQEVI
* marks the source's active call; other numbers are inactive results; i = inactive; ? = inconclusive; . = not tested or not shown; & = joins results of further samples. The list is partial; the hit share may differ from the screen's.

Ecoli growth	Vif TR-FRET	AF4-AF9 inh	FGF22 binding	RanGTP-Impb inh	UCH37 inh	HNF4A DNA FP	canonical_smiles
0.7	.	0.0	i	2.4	6.2	-55	CCOc1ccc(CNC(=O)Cn2nc(C)c3c(C)n(-c4ccc(C)cc4)nc3c2=O)cc1
0.68	9%	.	.	-0.2	0.1	0.3	O=C(NCc1ccco1)c1n[nH]c(=O)c2ccccc12
0.64	-5%	2.0	i	.	8.9	1.4	O=C(CCl)Nc1ncc(S(=O)(=O)c2ccc([N+](=O)[O-])cc2)s1
0.69	-6%	.	.	-1.0	-178	1.1	O=C(NC1=NCCS1)c1ccc(-c2ccc(Cl)cc2)o1
0.71	-4%	.	.	.	1.9	1.5	Cc1ccc([C@H]2C(C(=O)O)=CC[C@@H](c3ccc(Cl)cc3)N2S(=O)(=O)c2ccccc2C)cc1
0.72	-3%	13	i	-7.8	-11	-0.3	CCCn1c(O)c(N=Nc2ccc3ccccc3n2)c2ccccc21
0.77	-3%	.	.	-3.4	5.6	5.5	CC(=O)c1ccc(N2CCC(c3cc(-c4ccc(Cl)cc4Cl)n[nH]3)CC2)c([N+](=O)[O-])c1
0.49*	0%	.	.	-0.4	-0.9	-3.6	O=C(NCC(F)(F)F)Nc1nnc(C(F)(F)F)s1
0.67	14%	0.3	i	-0.4	4.2	-4.6	Cc1ccc2nc(SCC(=O)c3c(N)n(C)c(=O)n(C)c3=O)[nH]c2c1
0.63	.	-1.9	i	-0.9	0.8	-1.2	O=S(=O)(NCc1ccccc1)c1ccc(Br)s1
0.65	-2%	0.2	i	2.8	2.8	1.8	CCOC(=O)C1=C(COC(=O)COc2ccc(Br)cc2)NC(=O)NC1C (centres undefined)
0.64	-9%	-0.2	i	-2.1	3.2	-1.1	COc1ccc2[nH]cc(CCNC(=O)c3ccc4ccccc4n3)c2c1
.	?	2.7	i	-0.8	.	-1.2	Cc1[nH]n(-c2ccccc2)c(=O)c1N=Nc1cccc([N+](=O)[O-])c1
0.72	.	.	i	-12	-2.1	98	CCCCCN1C(=O)/C(=C/c2c(N3CCc4ccccc4C3)nc3ccccn3c2=O)SC1=S
0.75	?	.	.	-1.0	5.2	0.3	Oc1ccc(-c2nc3ncccn3c2Nc2ccc3c(c2)OCO3)cc1
0.66	25%	.	.	0.8	-0.1	0.8	O=C(Nc1ccccc1C(=O)O)c1ccccc1
0.69	5%&-5%	.	.	4.1	3.8	0.8	Cc1cc(C)cc(N(C(=O)Cn2nnc3ccccc32)C(C(=O)NCc2ccco2)c2ccncc2)c1 (centres undefined)
.	.	-1.1	i	.	.	3.7	Cc1ccc(CN2CCC[C@]3(N[C@H](c4ccccc4)[C@@H]4C(=O)N(C)C(=O)[C@@H]43)C2=O)cc1
0.65	3%	.	.	?	1.6	-0.3	CCc1ccc2nc3n[nH]c(N)c3cc2c1
0.67	.	3.4	i	2.5	5.6	-1.5	Cc1ccc(S(=O)(=O)Nc2ccc(S(=O)(=O)Nc3nccs3)cc2)c([N+](=O)[O-])c1
0.65	-10%	0.6	i	.	-0.6	3.1	COc1ccc(C(CNC(=O)c2cccc(S(=O)(=O)N3CCCC3)c2)N2CCCC2)cc1 (centres undefined)
0.67	-7%	1.0	i	-2.6	0.8	0.7	O=C(Nc1ccccc1N1CCCCC1)c1ccc(F)c(S(=O)(=O)N2CCOCC2)c1
0.63	.	?	i	-0.2	0.6	-1.2	COc1ccc(N2CCN(C3CCCN(Cc4ccc(F)cc4Cl)C3)CC2)cc1 (centres undefined)
0.71	3%	-1.1	i	5.4	2.5	2.0	COC(=O)c1cc(C)sc1NC(=O)CN1CCN(C(=O)c2ccco2)CC1
0.7	-2%	2.4	i	.	0.8	-1.4	CCOc1ccc(NC(=O)CN(C)C(=O)CC2CCCCC2)cc1OCC

Later entries.
Ecoli growth	Vif TR-FRET	AF4-AF9 inh	FGF22 binding	RanGTP-Impb inh	UCH37 inh	HNF4A DNA FP	canonical_smiles
0.63	-6%	0.2	i	42*	-442	2.8	C=C(C)Cc1c(C)c(C#N)c2[nH]c3ccccc3n2c1=O
0.71	.	1.5	i	0.1	11	3.1	CCOc1cccc(C2/C(=C(\O)c3ccc4c(c3)OCCO4)C(=O)C(=O)N2Cc2ccncc2)c1 (centres undefined)
0.64	-4%	-0.8	i	5.2	5.9	0.2	COCCn1c(SCC(=O)NC2CCCC2)nc2c(c1=O)SCC2
0.67	.	-1.8	i	-0.8	3.3	0.3	O=C(CCCl)Nc1nnc(SCC(=O)NC2CCCC2)s1
0.66	17%	-0.4	.	-3.6	3.8	3.1	CCC(c1nnc(SCC(=O)Nc2ccc(S(N)(=O)=O)cc2)n1Cc1ccccc1)N(C)C (centres undefined)
0.68	.	0.0	i	0.6	-25	-1.3	CCN1CCN(C(=O)Cn2ncc3c([nH]c4ccc(C)cc43)c2=O)CC1
0.68	.	-27	i	1.3	i	1.3	CCN(CC(=O)NCc1ccc(F)cc1)C(=O)/C=C/c1cc(OC)ccc1OC
0.7	-3%	0.0	.	.	1.3	0.3	Cc1ccc(S(=O)(=O)N2[C@@H](c3ccc(Br)cc3)C(C(=O)O)=C[C@H]2CC2CCCC2)cc1
0.69	.	-1.4	i	1.5	1.7	-0.3	CCc1nnc(NC(=O)CCC(=O)NC2CCCCCC2)s1
0.71	.	3.7	i	-1.4	4.8	0.2	CN(c1ccccc1)S(=O)(=O)c1cccc(C(=O)OCC(=O)NCc2ccco2)c1
0.65	-10%	2.6	i	.	2.5	4.0	CC1CCCC(NC(=O)CN(C)CC(=O)Nc2ccc(F)cc2)C1C (centres undefined)
0.71	9%	0.0	i	2.3	4.5	-2.7	Cc1onc(-c2ccccc2)c1C(=O)NCc1ccc2c(c1)OCO2
0.7	-2%	.	.	2.1	0.4	-0.1	CCOc1ccc(OCC)c(NC(=O)C2CCN(S(=O)(=O)c3cnc[nH]3)CC2)c1
0.66	-1%	-30	i	-0.8	5.3	0.6	CCOC(=O)C1=C(COC(=O)COc2ccccc2C#N)NC(=O)NC1C (centres undefined)
0.65	0%	.	.	-0.9	10	-1.2	CCSc1nnc(NC(=O)c2cccnc2)s1
0.65	.	-3.8	i	.	0.9	-5.7	COc1ccccc1-c1nnc(SCC(=O)Nc2cccnc2Cl)n1C
0.67	6%	1.4	i	.	0.6	0.4	CCN(C(=O)COC(=O)c1cccc(C)c1[N+](=O)[O-])c1c(N)n(Cc2ccccc2)c(=O)[nH]c1=O
0.68	8%	2.5	i	-2.2	0.4	0.9	O=C(Nc1ccc(S(=O)(=O)Nc2ncccn2)cc1)c1cccc(S(=O)(=O)N2CCCC2)c1
0.67	-4%	-0.5	i	4.2	13	-0.8	COc1ccc(/C=C2\SC(=O)N(CCNC(=O)CN3C(=O)NC4(CCCC4)C3=O)C2=O)cc1
0.69	.	.	.	-3.1	-0.8	4.1	CC(=O)N(NC(=O)c1ccc(C)cc1)C1CC(=O)N(c2ccccc2Cl)C1=O (centres undefined)
0.76	25%	.	.	.	-1.5	-0.9	CN(C)S(=O)(=O)N1CCC(c2ccc(F)cc2)C(COc2ccc3c(c2)OCO3)C1 (centres undefined)
0.7	13%	-2.3	i	1.7	1.5	-0.1	COc1ccc(NC(=O)C(c2cc3c(cc2[N+](=O)[O-])OCO3)N(C)C)cc1 (centres undefined)
0.69	-4%	-0.8	i	.	4.9	2.2	Cc1ccc(C(=O)N2CCCCC2C(=O)O)cc1S(=O)(=O)N1CCCCC1 (centres undefined)
0.66	-14%	-5.0	i	3.4	0.7	4.6	c1ccc(SCc2nc3ccccc3s2)nc1
0.68	6%	7.2	i	-0.2	3.6	-2.4	CC(C)c1ccc(NC(=O)N2CCC(c3nc4ccccc4o3)CC2)cc1

As a working copy, 4 of the compounds above.
Ecoli growth	Vif TR-FRET	AF4-AF9 inh	FGF22 binding	RanGTP-Impb inh	UCH37 inh	HNF4A DNA FP	canonical_smiles
0.68	9%	.	.	-0.2	0.1	0.3	O=C(NCc1ccco1)c1n[nH]c(=O)c2ccccc12
0.64	-5%	2.0	i	.	8.9	1.4	O=C(CCl)Nc1ncc(S(=O)(=O)c2ccc([N+](=O)[O-])cc2)s1
0.69	-6%	.	.	-1.0	-178	1.1	O=C(NC1=NCCS1)c1ccc(-c2ccc(Cl)cc2)o1
0.71	-4%	.	.	.	1.9	1.5	Cc1ccc([C@H]2C(C(=O)O)=CC[C@@H](c3ccc(Cl)cc3)N2S(=O)(=O)c2ccccc2C)cc1

Continuation:
Ecoli growth	Vif TR-FRET	AF4-AF9 inh	FGF22 binding	RanGTP-Impb inh	UCH37 inh	HNF4A DNA FP	canonical_smiles
.	.	0.5	i	.	.	-6.7	CC1(C(=O)NS(=O)(=O)c2ccc(Cl)s2)CCN1C(=O)C1(c2ccc(Cl)cc2)CCC1 (centres undefined)
0.69	0%	1.3	i	2.0	1.1	6.6	COc1ccc(/C=C2\N=C(C)N(c3ccc4ccccc4c3)C2=O)cc1OC
0.7	-3%	-2.4	i	0.3	3.8	-4.1	CCOC(=O)N1CCN(C(=O)COC(=O)CSc2cc(C)c(Br)cc2C)CC1
0.75	4%	.	.	0.9	3.2	-0.9	CCc1ccc2c(c1)c(N=NC1=NC(=O)CS1)c(O)n2C
0.72	-4%	.	.	-1.6	3.2	-2.6	CCOC(=O)C(NCc1ccccc1OC)(NC(=O)CC)C(F)(F)F (centres undefined)
0.66	.	-2.0	i	?	2.9	1.2	O=C(NCc1ccccc1)c1ccc(Cl)nc1
0.63	12%	?	i	4.1	5.4	0.9	COc1cc(C(=O)NC(=S)Nc2ccccc2N2CCCC2)cc(OC)c1OC
0.72	6%	.	.	1.4	-9.2	1.0	Cc1nn(-c2cc(C)c3ccccc3n2)c2c1CCC2
.	.	5.6	i	.	.	0.3	CCN(CCc1ccccc1)c1ccc2c(c1)C1CC2CCN1C(=O)OCc1ccccc1 (centres undefined)
0.64	6%	-2.6	i	-6.7	-0.9	-0.6	CC1CN(C(=O)COC(=O)c2cc([N+](=O)[O-])ccc2Cl)CC(C)O1 (centres undefined)
0.66	.	2.0	i	-2.6	-89	-2.9	COc1ccc(C(C(=O)NCc2ccccc2)N(C(=O)c2snc(C(N)=O)c2N)c2ccccc2OC)cc1OC (centres undefined)
.	-14%	2.3	i	2.1	.	4.8	COc1cccc(/C=N/NC(=O)Cn2cnc3c2c(=O)n(C)c(=O)n3C)c1OC
0.71	30%	.	.	-2.1	0.9	2.2	CCOC(=O)Nc1ccc2c(c1)Nc1ccccc1S2
0.67	?	.	.	3.0	-1.8	-1.3	Cc1c(-c2ccccc2)oc2c(C(=O)N3CCN(c4ccccc4F)CC3)cccc2c1=O
0.66	5%	1.0	i	-1.5	1.0	-1.6	CCOc1ccc(C(=O)N2CCC3(CC2)NCCc2[nH]cnc23)cc1OCC
0.69	30%	.	.	1.2	0.3	-0.2	CCOc1cccc(OCCOCCn2cnc3ccccc3c2=O)c1
0.67	.	-1.0	i	.	-1.1	2.3	CN(C)S(=O)(=O)c1cccc(C(=O)N2CCN(C(=O)C3CCCO3)CC2)c1 (centres undefined)
0.68	-9%	.	.	?	-11	2.5	Cc1ccc2c(c1)COc1c3ccc(C(=O)NCC4CC4)cc3nn1-2
0.72	3%	0.5	i	0.7	0.0	1.4	O=C(Nc1nonc1-c1ccc(F)cc1)c1ccco1
0.71	71%	0.2	i	?	-2.2	-1.9	CCOC(=O)N1CCC(N2Cc3cccc(C(=O)Nc4cc(F)ccc4F)c3C2=O)CC1
0.68	29%	.	.	2.2	1.3	0.4	O=C(Nc1ccc2c(c1)OCO2)N1CCN(c2cccc(C(F)(F)F)c2)CC1
0.66	.	-3.7	i	-0.6	2.6	.	Cc1ccc(S(=O)(=O)N2CCN(C(=O)Cn3nc(C(=O)O)c4ccccc4c3=O)CC2)cc1
